# Vif TR-FRET = inhibitors of Vif binding to APOBEC3G peptide, primary screen, biochemical, TR-FRET, GST-Vif 1-94, biotin-A3G peptide, dose response retest (AID 1117319) | Virion infectivity factor (Human immunodeficiency virus type 1 group M subtype B (isolate … | TR-FRET GST-Vif / biotin-A3G peptide binding; higher % means a stronger effect; test concentration not given here; strong numbers were not always called active | one-dose inhibition, %; IC50 in µM for titrated hits | 0.57% of 260,000 active;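 active = above the screen mean plus three standard deviations and confirmed in dose response; inconclusive = results disagree or hit not tested in dose response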;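 note: Vif residues 1-94 fused to GST binding biotinylated APOBEC3G peptide 110-148; 0% = full assay without inhibitor and 100% = GST in place of GST-Vif; retest series ran down from 100 µM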
# ALR H2O2 inh = inhibitors of human ALR sulfhydryl oxidase, primary screen, biochemical, H2O2 detection, HRP-luminol luminescence, single point; purified ALR, DTT oxidation; inhibition, % (test concentration not listed); 3.8% of 290,000 active; AID 485317, 2010;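 active = mean and each replicate at 75% or more; inconclusive = only one of the two met; inactive = neither met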;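 note: stock transfer was 7.5 nL into about 7.5 µL; 0% = neutral wells and 100% = wells with inactivated enzyme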
# HNF4A DNA FP = change in binding of human HNF4A to DNA, primary screen, biochemical, fluorescence polarization, FITC-DNA. Hepatocyte nuclear factor 4-alpha (Homo sapiens), P41235. 1 h. activity change, % at 10 µM. 0.3% of 360,000 active; in the data active = activity change above about 30%, passing the limit was not always enough;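 note: controls were the assay level and a saturating level of protein; the project sought stronger binding though the title names inhibitors; some compounds called inactive have numbers as strong as hits; positive values seem to mean higher polarization but the record does not say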
# Target sequence (P41235 whole entry, looked up): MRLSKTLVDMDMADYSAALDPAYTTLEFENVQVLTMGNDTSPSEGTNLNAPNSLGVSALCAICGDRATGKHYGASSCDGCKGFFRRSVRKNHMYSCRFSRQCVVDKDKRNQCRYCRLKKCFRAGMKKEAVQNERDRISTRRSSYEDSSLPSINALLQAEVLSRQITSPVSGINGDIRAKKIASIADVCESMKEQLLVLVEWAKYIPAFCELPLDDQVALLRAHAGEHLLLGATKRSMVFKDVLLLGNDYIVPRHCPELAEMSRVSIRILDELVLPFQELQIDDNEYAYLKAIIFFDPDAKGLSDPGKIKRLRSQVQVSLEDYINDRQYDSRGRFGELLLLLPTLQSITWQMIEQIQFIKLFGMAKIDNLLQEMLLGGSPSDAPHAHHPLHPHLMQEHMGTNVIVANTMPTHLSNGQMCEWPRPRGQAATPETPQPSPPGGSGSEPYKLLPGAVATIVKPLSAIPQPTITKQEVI
# rRNA inh HTS = reduced GFP signal of wild-type E. coli, primary screen, bacterial rRNA inhibitor project, GFP/RFP fluorescence, OD600, single point; 1.6% of 350,000 active; GFP signal change (wild-type ribosome), % (no concentration beside the values); E. coli WT GFP vs humanized-ribosome RFP mutants, 24 h; active compounds read low; DMSO median 0, no signal -100;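 active = significant combined selectivity score with lowered wild-type GFP, culture density cut under 30%, mutant RFP and density less affected; inactive = any of these conditions unmet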; note: one replicate is shown; some compounds called inactive have numbers as strong as hits
# FGF22 binding = binders of human FGF22 protein, primary screen, FGF22 synaptogenesis inhibitor project, biophysical, thermal shift, single point; Fibroblast growth factor 22 (Homo sapiens), Q9HCT0; recombinant FGF22 thermal shift, SYPRO orange fluorescence; percent of sucrose octasulfate shift, DMSO zero; calls only at 9.99 µM; 1.5% of 340,000 active; AID 651658, 2012;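 active = melting point raised past a set limit in the mean and every replicate; inconclusive = no clear call; three in four hits are not shown here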
# AF4-AF9 inh = inhibitors of AF4 peptide binding to AF9, primary screen, biochemical, AlphaScreen, biotin-AF4 peptide, FLAG-AF9, single point. Protein AF-9 (Homo sapiens), P42568. inhibition, % at 10 µM. 0.47% of 350,000 active. AID 651704, 2012;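 active = every replicate reaching a set inhibition limit, whatever the replicate mean, cut at about 25% in these data; inconclusive = mean inhibition reaches that limit but some replicates miss it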;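 note: 0% = plate neutral control median and 100% = total signal loss; the record names both 10 and 1 µM as test concentration; the first replicate is given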
# Target sequence (P42568 whole entry, looked up): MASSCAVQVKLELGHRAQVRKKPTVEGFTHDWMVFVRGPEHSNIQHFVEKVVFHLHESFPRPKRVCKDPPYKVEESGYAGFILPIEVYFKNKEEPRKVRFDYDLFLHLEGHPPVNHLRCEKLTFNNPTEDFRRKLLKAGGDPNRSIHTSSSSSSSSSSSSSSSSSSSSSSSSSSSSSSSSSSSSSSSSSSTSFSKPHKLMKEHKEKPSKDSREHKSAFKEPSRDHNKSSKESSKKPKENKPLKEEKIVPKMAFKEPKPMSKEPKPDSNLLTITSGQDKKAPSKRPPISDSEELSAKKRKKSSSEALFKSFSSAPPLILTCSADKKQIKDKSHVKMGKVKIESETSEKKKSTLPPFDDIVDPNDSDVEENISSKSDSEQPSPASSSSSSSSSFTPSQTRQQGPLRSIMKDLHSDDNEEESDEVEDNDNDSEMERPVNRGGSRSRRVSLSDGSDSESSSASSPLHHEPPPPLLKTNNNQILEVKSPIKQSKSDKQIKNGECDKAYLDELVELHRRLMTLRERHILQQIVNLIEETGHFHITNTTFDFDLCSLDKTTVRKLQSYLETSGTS
# E coli growth = E. coli growth inhibition, primary screen, OD600; 0.21% of 330,000 active; Escherichia coli growth, 23 h; active compounds read low; OD600 absorbance (concentration not given with the values); AID 1053175, 2014;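 active = OD600 absorbance below the run mean of sample wells minus 3.6 SD, in any replicate, cut at about 0.56 in these data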;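 note: stock transfer was 300 nL into about 60 µL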
# rRNA inh HTS OD600 = second read-out of rRNA inh HTS, no call of its own (marks repeat the call); OD600 change, %; measured here: OD600 growth;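 optical density of the mix in the first replicate; 0 = DMSO median and -100 = no signal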
# rRNA inh HTS RFP = also measured in rRNA inh HTS; calls as there; RFP signal change, %; measured here: RFP humanized mutant strains;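 first replicate; 0 = DMSO median and -100 = no signal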
# Active calls of the source: *; i = inactive; u = inconclusive; x = not tested or not shown.
SMILES,Vif TR-FRET,ALR H2O2 inh,HNF4A DNA FP,rRNA inh HTS,rRNA inh HTS OD600,rRNA inh HTS RFP,FGF22 binding,AF4-AF9 inh,E coli growth
O=C(CCC(=O)NCc1ccccc1)NCc1ccccc1,x,-1.4,-3.1,9.0,7.9,2.0,i,-16.1,0.68
CCCC(=O)N1C[C@H]2[C@@H](c3ccccc31)[C@H](CO)N2C(=O)Nc1ccccc1,x,x,x,-0.3,-0.4,-3.1,i,-3.0,x
O=C(NC(C(=O)NCCN1CCOCC1)C12CC3CC(CC(C3)C1)C2)C1CCCCC1 (centres undefined),0.6%,5.2,0.0,2.5,4.3,-1.8,x,x,0.709
Cc1ccccc1NC(=O)C(=O)NCCc1c[nH]c2ccccc12,-1.7%,-10.3,-4.2,-2.9,-12.8,2.2,i,-7.3,0.777
COc1cccc(OCC(Cn2c(C)nc3ccccc32)OC(C)=O)c1 (centres undefined),-1.5%,-19.0,2.2,-7.4,-3.9,-0.8,i,1.2,0.7
O=C(CSc1nc(O)c(Cc2ccccc2)c(=O)[nH]1)Nc1nnc(SCc2ccccc2)s1,x,29.6,1.5,15.6,15.6,1.3,i,-3.8,x
C[C@@H]1CN([C@@H](C)CO)C(=O)c2cc(NC(=O)Nc3ccc4c(c3)OCO4)ccc2O[C@@H](C)CCCCO[C@H]1CN(C)C(=O)Cc1ccccc1,x,x,x,-2.2,-3.3,-1.6,i,-1.4,x
O=c1cc(-c2ccccc2)nc(SCCOc2ccccc2Cl)[nH]1,x,-1.1,0.2,9.3,17.2,-1.2,i,-7.3,0.729
O=C1N(Cc2cccc(Cl)c2)C[C@@H]2C[C@@H](c3cccc4ncccc34)N3CCC[C@@]123,0.8%,-19.3,0.5,x,x,x,i,3.8,0.712
Cn1cc(C(=O)NC2CCCCC2)c(=O)c2cc(S(=O)(=O)N3CCOCC3)ccc21,1.2%,-0.9,3.0,-0.8,-0.1,-2.0,i,2.1,0.706
O=C(NCc1ccccn1)[C@H]1[C@H](CO)[C@H]2Cn3c(cccc3=O)[C@H]2N1CCc1ccccc1,x,x,x,-8.3,-9.7,10.2,i,-1.5,x
C[C@H]1C(c2ccc(F)cc2)=NN(c2ccccc2)[C@@H]1CO,-0.2%,x,6.7,-50.6,-79.1,-14.8,i,-34.2,0.66
CCOC(=O)COc1ccccc1C1Nc2ccccc2C(=O)N1c1cccc(Cl)c1 (centres undefined),3.3%,-4.5,2.2,0.7,-1.9,1.8,i,3.3,0.685
C[C@@H]1CN([C@@H](C)CO)C(=O)c2cc(C#Cc3ccccn3)cnc2O[C@@H]1CN(C)C(=O)CCN1CCCCC1,x,x,x,5.8,10.7,1.6,i,-0.7,x
COc1cc(-c2nnc(SCC(=O)N3c4ccccc4Sc4ccccc43)o2)cc(OC)c1OC,-5.2%,0.7,0.3,x,x,x,x,x,0.772
COc1ccc(CC(=O)NC(=S)Nc2cccc(C)c2)cc1,x,-13.6,0.1,-17.9,-12.0,-3.6,i,0.8,0.706
O=C(Nc1ccc(Cl)cc1)N1C[C@@H]2[C@H](c3ccccc31)[C@@H](CO)N2C(=O)C1CC1,x,x,x,-7.4,0.3,0.7,i,-0.5,x
CCn1cc(/C=N/NC(=O)c2cc3c(ccc4ccccc43)o2)c2ccccc21,-1.4%,-2.7,1.7,x,x,x,x,x,x
Cc1ccc(C(=O)Oc2ccccc2C(=O)N2CCOCC2)cc1,2.5%,-14.4,2.3,x,x,x,x,x,0.679
O=C(c1ccc(CNc2c(N3CCCC3)c(=O)c2=O)cc1)N1CCN(C2CCCCC2)CC1,6.0%,7.4,0.4,6.6,12.5,-1.1,i,-2.9,0.699
Cc1ccccc1NS(=O)(=O)c1ccc(NC(=O)N2CCCCC2)cc1,x,-14.2,0.5,-29.1,-26.5,-5.6,i,0.2,0.696
N#CCCN/N=C(/Cc1nc2ccccc2[nH]1)c1cccc(Cl)c1,u,-1.5,14.2,x,x,x,x,x,x
COc1ccc(C2NC3=C(CCC3)C3(C#N)C(OC)(OC)N=C(N)C23C#N)cc1 (centres undefined),u,-15.4,2.4,x,x,x,x,x,0.695
COc1ccc2c(=O)cc(C(F)(F)C(F)(F)F)oc2c1,1.1%,-6.3,1.4,x,x,x,x,x,0.683

# Looked up by compound from the list above, two records:
SMILES,Vif TR-FRET,ALR H2O2 inh,HNF4A DNA FP,rRNA inh HTS,rRNA inh HTS OD600,rRNA inh HTS RFP,FGF22 binding,AF4-AF9 inh,E coli growth
CCn1cc(/C=N/NC(=O)c2cc3c(ccc4ccccc43)o2)c2ccccc21,-1.4%,-2.7,1.7,x,x,x,x,x,x
O=C(c1ccc(CNc2c(N3CCCC3)c(=O)c2=O)cc1)N1CCN(C2CCCCC2)CC1,6.0%,7.4,0.4,6.6,12.5,-1.1,i,-2.9,0.699

# Following part
SMILES,Vif TR-FRET,ALR H2O2 inh,HNF4A DNA FP,rRNA inh HTS,rRNA inh HTS OD600,rRNA inh HTS RFP,FGF22 binding,AF4-AF9 inh,E coli growth
CCNc1nc(N)c(C(=C(C#N)C#N)c2ccccc2)s1,-14.2%,6.5,1.8,x,x,x,x,x,0.678
Cc1cc2n(n1)C(c1ccccc1)Nc1ccccc1-2 (centres undefined),-3.5%,90.7*,-3.5,-40.0,-66.1,-6.9,x,x,0.648
CC(=O)Nc1ccc2c(c1)C(=O)N(C)[C@H]1CC[C@@H](CC(=O)NCc3ccccc3)O[C@H]1CO2,x,x,x,2.1,6.7,0.8,i,2.5,x
COc1ccc(C(=O)O)cc1S(=O)(=O)Nc1ccc(Oc2ccccc2)cc1,6.9%,-2.1,-2.0,-5.6,-2.8,-1.4,i,1.6,0.665
O=C(Nc1cc(S(=O)(=O)N2CCOCC2)ccc1N1CCOCC1)c1cc(=O)[nH]c2ccccc12,0.4%,3.9,-0.5,11.4,18.9,3.9,i,1.1,0.699
Cc1ccc(S(=O)(=O)N(C)C[C@H]2OCCCC[C@@H](C)Oc3ccc(NS(C)(=O)=O)cc3C(=O)N([C@H](C)CO)C[C@H]2C)cc1,x,x,x,0.9,-7.1,3.1,i,-2.9,x
CCNS(=O)(=O)c1ccc(CCC(=O)N2CCN(c3cc(Cl)ccc3C)CC2)cc1,-0.6%,-1.6,2.6,7.0,6.1,0.8,i,-0.3,0.664
O=C(CN1CCOCC1)NCC[C@H]1CC[C@H](NC(=O)Nc2ccccc2)[C@H](CO)O1,x,x,x,3.5,3.4,-1.0,i,-2.4,x
COC(=O)C1=CN(C(C)c2ccccc2)C=C(C(=O)OC)C1c1cc(OC)c(OC)c(OC)c1 (centres undefined),-6.3%,1.7,-1.5,-22.0*,-8.7*,3.5*,i,-23.3,0.718
C[C@@H]1CN([C@H](C)CO)C(=O)c2cc(C3=CCCC3)cnc2O[C@H]1CN(C)C(=O)CN(C)C,x,x,x,0.9,10.2,0.6,i,-2.0,x
COc1ccc(N(C(C)C(=O)NC2CCCCCC2)S(C)(=O)=O)cc1 (centres undefined),-3.5%,-5.5,1.4,x,x,x,x,x,0.651
Cc1ccc(S(=O)(=O)N2C[C@H]3N(C(=O)OC(C)C)N(C(=O)OC(C)C)C[C@H](OC(=O)NCc4ccco4)[C@@]3(O)C2)cc1,4.9%,x,-2.1,5.9,8.0,10.2,i,4.2,x
O=C(Nc1nnc(-c2ccncc2)s1)Nc1ccccc1F,-4.7%,-3.7,-0.2,13.3,6.7,-1.9,x,0.8,0.688
COc1cc(C(=S)N2CCOCC2)cc(OC)c1OC(=O)c1ccc([N+](=O)[O-])cc1[N+](=O)[O-],x,-26.2,-0.1,13.6,8.8,1.7,i,9.0,0.629
COC(=O)C1=C(C)N(C)C(=NCc2cccc(C(F)(F)F)c2)NC1c1ccc(Cl)cc1 (centres undefined),x,x,x,-54.4,-77.5,-17.4,x,2.7,x
Cc1nn(-c2ccccc2)c(Cl)c1C(=O)NCc1cccs1,x,4.1,0.6,x,x,x,x,x,0.734
COc1ccccc1N1CCN(CC(=O)NCC2CCCO2)CC1 (centres undefined),x,6.6,-2.1,18.3,12.5,2.0,x,x,0.725
Cc1c(C(=O)N2CCN(C3CCS(=O)(=O)C3)CC2)oc2ccc(Cl)cc12 (centres undefined),-9.6%,x,0.3,1.0,0.5,-0.7,i,-2.9,0.705
O=C(CCN1CCc2ccccc2C(O)(c2ccccc2)C1)c1ccc2c(c1)OCCO2 (centres undefined),-8.7%,x,-3.0,x,x,x,x,x,0.681
COc1ccccc1Nc1nc(NCC2CCCO2)c2ccccc2n1 (centres undefined),-4.3%,1.9,2.0,-49.2,-76.8,-11.2,i,5.9,0.621
O=C1c2cccnc2C(=O)N1Cc1ccc(S(=O)(=O)NCc2ccco2)s1,x,-3.9,-3.2,9.7,12.4,-1.0,i,-2.6,0.709
CC(=O)Nc1cccc(NC(=O)CCn2cnc3cc(C)c(C)cc32)c1,7.1%,4.4,1.8,x,x,x,x,x,0.697
C[C@@H]1CN([C@H](C)CO)C(=O)c2cc(N(C)C)ccc2O[C@H]1CN(C)C(=O)Nc1ccccc1,x,x,x,3.6,5.8,2.0,i,0.0,x
O=C(c1cccnc1)N1CCCCN2[C@H](C1)[C@@H](c1ccc(C#Cc3ccccn3)cc1)[C@@H]2CO,x,x,x,0.5,1.6,-4.2,i,-4.7,x
CCS(=O)(=O)C(=C1NCCO1)S(=O)(=O)CC,u,-5.4,1.4,x,x,x,x,x,0.62
C[C@@H]1CN([C@H](C)CO)C(=O)CCCn2cc(nn2)CO[C@@H]1CN(C)C(=O)Nc1ccc(-c2cccs2)cc1,x,x,x,-2.7,-8.6,-1.1,i,-0.1,x
CS(=O)(=O)Nc1ccc2c(c1)[C@@H]1C[C@H](CC(=O)NCc3ccc(Cl)cc3)O[C@H](CO)[C@@H]1O2,x,x,x,0.0,1.6,-1.3,i,-0.7,x
CCOc1ccc(C(=O)OCC(=O)Nc2cccnc2Cl)cc1OCC,x,x,2.7,x,x,x,i,-0.6,0.715
CCOC(=O)/C=C1\SCC(=O)N1CC(=O)c1ccc[nH]1,u,-0.7,6.8,x,x,x,x,x,0.731
COc1ccc(NC(=O)/C(Cl)=C(/Cl)S(=O)Cc2ccc(Cl)cc2)cn1 (centres undefined),9.4%,x,1.1,-27.0,-38.0,-1.0,i,-4.5,0.65
O=[N+]([O-])CC(c1ccc(F)cc1)c1c[nH]c2ccccc12 (centres undefined),-4.6%,11.2,0.3,-8.0,-0.1,-2.9,i,5.0,0.654
O=C(Nc1ccc(N2CCOCC2)c(Cl)c1)c1cc(F)c(F)cc1Cl,-0.7%,-1.6,1.9,x,x,x,x,x,0.683
O=C(O)C1CCCN(S(=O)(=O)c2ccc(F)cc2)C1 (centres undefined),0.0%,-0.8,0.9,x,x,x,x,x,0.651
Cc1nc2ccccc2c(=O)n1NC(=O)c1cncc(Br)c1,20.4%,-1.5,1.4,7.7,0.0,0.8,i,1.8,0.678
CC1CCC2(CC1)NC(=O)N(CC(=O)N1CCOCC1)C2=O (centres undefined),1.9%,1.6,3.5,1.4,10.2,-3.4,i,-2.1,0.713
COc1ccccc1C(C)NC(=O)Cc1ccsc1 (centres undefined),x,x,1.1,3.1,1.6,-1.1,i,-13.4,0.628

# Compound activity: PubChem, several laboratories

# These rows are one share of the data; count on the stated rates, not on these rows.
